Source: PubChem
SARS PLP yeast: blocks SARS-CoV papain-like protease in a yeast assay | S. cerevisiae expressing SARS-CoV PLpro, growth rescue; control for the full effect not named in the record | AID 485353 | Potency, µM (titrated, usually from 32.9 µM), for inactives: at the top dose activity, positive = growth rescue | 330,000 tested, 0.19% active; note: 0% is about no effect; nearly all actives have a fitted effect of over 55% in size; growth read by luminescence after 48 h
2A StopGo: lowers the luciferase signal of an FMDV 2A StopGo reporter; human cells with a luciferase reporter of 2A StopGo recoding; control for the full effect not named in the record; AID 1159524; Potency, µM (highest dose often 57.9 µM), inactives show at the top dose signal change, negative = less light; 410,000 tested, 1.2% active; active = well fitted falling curve with a large enough effect; inconclusive = small, poorly fitted or top-dose-only effect; inactive = no such curve, though single readings can be large or run the other way; tested in HEK293T cells; note: % is set by controls: 0 for no effect and ±100 for the full control effect; nearly all actives have a fitted effect of over 45% in size; luciferase light after 4 h
Cruzain noTriton: cruzain (T. cruzi) inhibition without detergent | 200,000 tested, 2.3% active | Potency, µM, without a hit: max response, negative = inhibition, most hits filed as inhibitors | purified cruzain, Z-FR-AMC fluorescence, no detergent | P25779; active = well fitted curve in the direction sought with a large enough effect; inconclusive = small, poorly fitted or top-dose-only effect, or another doubt; inactive = no such curve, though single readings can be large; an effect the other way counts as inactive or inconclusive;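 note: plate controls were enzyme without inhibitor for no effect and buffer without enzyme for full effect; nearly all actives have a fitted effect of over 40% in size; top concentration of the series not given in the record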
Target sequence (P25779 123-467 limits assumed): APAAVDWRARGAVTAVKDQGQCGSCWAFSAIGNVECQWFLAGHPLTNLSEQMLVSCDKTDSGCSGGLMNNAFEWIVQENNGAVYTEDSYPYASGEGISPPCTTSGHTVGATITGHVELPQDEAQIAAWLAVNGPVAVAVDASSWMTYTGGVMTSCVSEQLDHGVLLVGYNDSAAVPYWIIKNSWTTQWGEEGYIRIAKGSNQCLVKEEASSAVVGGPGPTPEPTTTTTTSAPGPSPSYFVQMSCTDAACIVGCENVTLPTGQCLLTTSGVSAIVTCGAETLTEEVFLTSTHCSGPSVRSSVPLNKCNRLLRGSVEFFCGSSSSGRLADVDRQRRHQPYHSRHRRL
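Detergent-free condition (0.00005% Triton X-100) in acetate buffer pH 5.5 with DTT. 1.5 nM enzyme and compound were pre-mixed 15 min, then 2 uM Z-FR-AMC substrate added; reaction progress from fluorescence change between first and third reads (60 s).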
RE007 growth inh: less growth of the S. pombe RE007 Vpr strain. S. pombe RE007 Vpr strain, BacTiter-Glo ATP luminescence, 24 h; control for the full effect not named in the record. Potency, µM (doses to about 92.2 µM), for inactives: at the highest dose activity change, negative = less growth. 360,000 tested, 0.21% active; active = well fitted falling curve with a large enough effect; inconclusive = small, poorly fitted or top-dose-only effect; inactive = no such curve, though single readings can be large or run the other way;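 note: % is set by controls: 0 for no effect and ±100 for the full control effect; nearly all actives have a fitted effect of over 50% in size; the assay follows cell death caused by Vpr and the record does not say whether a fall means rescue or toxicity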
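Fission yeast RE007 carrying one integrated HIV-1 vpr copy, seeded at OD 0.01 in PMG+AL medium with 23 nL pinned compound. Grown 24 h at 30 degrees; viability read by BacTiter-Glo luminescence after 5 min.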
Cruzain inh Det: blocks cruzain activity in presence of Triton detergent; P25779; purified cruzain, Z-FR-AMC fluorescence, 0.01% Triton; Potency, µM, for inactives: max response, negative = inhibition, usual class: inhibitors; 200,000 tested, 0.43% active; AID 1478; active = well fitted curve in the direction sought with a large enough effect; inconclusive = small, poorly fitted or top-dose-only effect, or another doubt; inactive = no such curve, though single readings can be large; an effect the other way counts as inactive or inconclusive;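 note: plate controls were neutral wells for no effect and buffer without enzyme for full effect; nearly all actives have a fitted effect of over 40% in size; top concentration of the series not given in the record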
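Detergent-containing arm of a paired screen for aggregation-based inhibition: 0.01% Triton X-100 present. Cruzain at 1.5 nM cleaved 2 uM Z-FR-AMC at pH 5.5 with 5 mM DTT; AMC fluorescence gain over 60 s measured activity.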
NS1 inh: influenza NS1 inhibition; 270,000 tested, 0.4% active; Potency, µM (doses to about 46.1 µM), for inactives: top-dose activity, positive = more growth; S. cerevisiae slowed by influenza A NS1, growth recovery by OD600; note: actives are rising curves; nearly all actives have a fitted effect of over 50% in size
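Growth recovery, yeast-based: influenza A NS1 expressed in S. cerevisiae causes slow growth, and suppressors are detected by OD600. The parent strain without NS1 is used as positive control.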
MARV entry inh: inhibitors of Marburg virus binding or cell entry. Marburg virus pseudotyped entry inhibition, cell reporter; control for the full effect not named in the record; about a third of the inactives were read at about 46 µM. Potency, µM (doses to about 37.8 µM), for the others: at the top dose activity change, negative = inhibition, actives largely listed as inhibitors. 300,000 tested, 1.8% active; active = well fitted inhibition curve with a large enough effect; inconclusive = small, poorly fitted or top-dose-only effect, or effect the other way; inactive = flat fitted curve, though single readings scatter; tested in HEK293 cells; about a fifth of its hits are not listed in these tables; note: % is set by controls: 0 for no effect and ±100 for the full control effect; luciferase read-out
Lassa entry inh: inhibitors of Lassa virus binding or cell entry | Lassa virus pseudotype entry inhibition, cell reporter; control for the full effect not named in the record | Potency, µM (top dose mostly 37.9 µM), inactives show at the highest dose activity change, negative = inhibition, usual class: inhibitors | 300,000 tested, 1.2% active; active means well fitted inhibition curve with a large enough effect; inconclusive means small, poorly fitted or top-dose-only effect, or effect the other way; inactive means flat fitted curve, though single readings scatter; tested in HEK293 cells; note: % is set by controls: 0 for no effect and ±100 for the full control effect; nearly all actives have a fitted effect of over 50% in size; luciferase read-out
Starred values were filed as active, the others as inactive; u = inconclusive; x = not tested or not shown; & = joins results of further samples; [ ] = dose if it differs, or a comment. Unless noted, calls come from the whole dose curve; as a rule, active means well fitted rising curve with a large enough effect; inconclusive means small, poorly fitted or top-dose-only effect; inactive means no such curve, though single readings can be large or run the other way. Potency is the fitted concentration of half-maximal effect. Compounds as they come; 4.7% or so of the library scored in one or more.

Each structure is followed by: SARS PLP yeast	2A StopGo	Cruzain noTriton	RE007 growth inh	Cruzain inh Det	NS1 inh	MARV entry inh	Lassa entry inh
- CC(C)OP(=O)(OC(C)C)C(Nc1cccc(C(=O)O)c1)c1ccccc1 (configuration not stated)
    0%	8.9µM*	x	7%	x	7%	-5%[46.1 µM]	8%
- Cc1cc(NC(=O)CCC(=O)N(CC(=O)NC2CCCC2)Cc2ccccc2Cl)no1
    3%	-18%	7%	-11%	1.0%	0%	-11%[46.1 µM]	-5%
- COc1ccc(Cn2cnc3c4cc(F)ccc4n(C)c3c2=O)cc1
    0%	-8%	x	14%	x	2%	u	u
- Cn1c(CNC(=O)c2ccc3c(c2)OCO3)nnc1SCC(=O)Nc1ccccc1F
    -2%	4%	x	13%	x	6%	-4%[46.1 µM]	-2%
- Cc1cccc(C)c1NC(=O)CCCSc1nnc(N)s1
    2%	-6%	x	0%	x	x	10%	19%
- O=C(Nc1ccc(N2CCOCC2)cc1)c1cnccn1
    -12%	-59%	x	2%	x	-18%	u	2.2µM*
- O=C(NC(=S)NCc1ccco1)c1ccccc1
    0%	0%	x	-8%	x	2%	30%[46.1 µM]	-5%
- O=C(Nc1cccc(C(F)(F)F)c1)c1cc(S(=O)(=O)N2CCCCC2)ccc1N1CCOCC1
    -25%	-21%	u	-5%	-12%	-2%	u	6%
- CC(=O)N(C(C)=O)C1=C(C#N)C2(CCCCC2)Cc2ccccc21
    -3%	u	6%	23%	-2.3%	-33%	u	-26%
- Cn1nc(CC(=O)N2CCN(c3ccccc3)CC2)c2ccccc2c1=O
    10%	u	-17%	0%	4.0%	9%	u	u
- CN(C)c1nnc(-c2ccc(Cl)cc2)o1
    0%	28%	x	4%	x	x	7%	6%
- O=C(COC(=O)COc1ccc(Cl)cc1Cl)Nc1cccnc1Cl
    -32%	2%	16%	-12%	0.4%	-13%	14%	6%
- Cc1ccc(-n2c(/C=C/c3cccs3)nc3ccccc3c2=O)cc1C
    x	-23%	-4%	x	-0.8%	x	x	17%[46.1 µM]
- O=C(O)CCC(=O)N1N=C(c2cccs2)CC1c1ccc(Br)cc1 (configuration not stated)
    0%	-8%	x	1%	x	-3%	x	x
- CCOC(=O)c1c(S(=O)(=O)NCC(=O)NCc2ccccc2Cl)c(C)n(C)c1C
    4%	13%&-7%	-1%	8%	-0.1%	-7%	1%&1%[46.1 µM]	18%&11%[46.1 µM]
- c1ccc(Oc2ncnc3ccccc23)cc1
    x	15%	x	-26%	x	x	-2%[46.1 µM]	1%[46.1 µM]
- Cc1sc(NC(=O)CSc2nc(N)n(CC(=O)c3ccccc3)n2)c(C#N)c1C
    1%	-11%	u	4%	-0.2%	u	u	u
- CC(C)NC(=O)c1cc(C(=O)c2cc(Cl)ccc2O)coc1=N
    7%	-14%	-9%	10%	-4.5%	-11%	-24%[46.1 µM]	u
- CCOc1ccc(CNC(=O)c2ccc3[nH]c(C)c(C)c3c2)cc1OC
    x	-13%	7%	x	-3.1%	x	x	u
- O=C(NCCc1ccncc1)c1ccc2nc(Cc3cccc(Cl)c3)oc2c1
    -1%	-27%	x	15%	x	-29%	-9%	6%

2 compounds picked at random from those above, as already listed:
Each structure is followed by: SARS PLP yeast	2A StopGo	Cruzain noTriton	RE007 growth inh	Cruzain inh Det	NS1 inh	MARV entry inh	Lassa entry inh
- CCOC(=O)c1c(S(=O)(=O)NCC(=O)NCc2ccccc2Cl)c(C)n(C)c1C
    4%	13%&-7%	-1%	8%	-0.1%	-7%	1%&1%[46.1 µM]	18%&11%[46.1 µM]
- Cn1c(CNC(=O)c2ccc3c(c2)OCO3)nnc1SCC(=O)Nc1ccccc1F
    -2%	4%	x	13%	x	6%	-4%[46.1 µM]	-2%

Next records follow:
Each structure is followed by: SARS PLP yeast	2A StopGo	Cruzain noTriton	RE007 growth inh	Cruzain inh Det	NS1 inh	MARV entry inh	Lassa entry inh
- COc1ccc(CNC(=O)CN2CCC(NC(=O)c3ccccc3C)CC2)cc1
    1%	4%	x	-12%	x	-3%	u	x
- CCCSc1cc(=O)n(-c2ccccc2)nc1C(=O)O
    -1%	-5%	x	16%	x	x	4%[46.1 µM]	15%[46.1 µM]
- C=CCCC(=O)Nc1nc(C)c(-c2csc(Nc3ccc(Cl)cc3)n2)s1
    -8%	-18%	13µM*	2%	-2.4%	-6%	x	x
- Cn1c(=O)c2ncn(CC(=O)Nc3cccc(-c4nc5ccccc5s4)c3)c2n(C)c1=O
    2%	15%	u	1%	-11%	-59%	u	u
- CCCCN(CC)CCCNC(=O)CS(=O)(=O)Cc1nc(-c2ccc(C)cc2)oc1C
    x	-24%	3%	x	0.2%	x	-1%[46.1 µM]	u
- Cc1ccc(Nc2c(-c3ccc(N4CCOCC4)cc3)nc3ncccn23)cc1
    -12%	-8%&8%	-10%&8%	-7%	-2.4%&-5.7%	30%	-16%[46.1 µM]	4%[46.1 µM]
- CC1CCCN(CCCNC(=O)c2ccc(CS(=O)(=O)c3c(Cl)cccc3Cl)o2)C1 (configuration not stated)
    -5%	-19%	x	-10%	x	-1%	u	34%[46.1 µM]
- COC(=O)CCC(=O)N1CCc2cc(S(=O)(=O)N3CCN(c4ccccc4Cl)CC3)ccc21
    -4%	u	u	4%	1.0%	16%	u	-4%
- O=C(OCC(=O)N1CCCC1)c1cc([N+](=O)[O-])ccc1Cl
    0%	10µM*	x	-8%	x	6%	9%[46.1 µM]	16%[46.1 µM]
- Cc1cc(C(=O)NC2CCCc3c2cnn3-c2ccccc2F)nc(C)n1 (configuration not stated)
    1%	-24%	x	1%	x	-9%	u	u
- Cc1c(Cl)cccc1N1C(=O)NC(=O)/C(=C\c2cc(C)n(-c3cccc(C(=O)O)c3C)c2C)C1=O
    -2%	-6%	x	16%	x	17%	x	x
- N#Cc1sc2nc(-c3cccs3)cc(-c3ccc(F)cc3)c2c1N
    16%	-15%	u	12%	-4.7%	18%	-18%	-3%
- Cc1ccccc1CNC(=O)c1ccc(NC(=O)N2CCCCc3ccccc32)cc1
    x	16%	-10%	x	-0.4%	x	x	1%[46.1 µM]
- O=C(c1cccc(F)c1)N1CCN(C(=O)c2cc3nc(-c4ccco4)cc(C(F)(F)F)n3n2)CC1
    0%	-5%	x	0%	x	0%	-17%[46.1 µM]	14%[46.1 µM]
- CCOC(=O)COc1ccc2c(c1)c(C(C)=O)c(C)n2-c1ccc(OC)cc1
    -6%	-5%	x	2%	x	-35%	-6%	u
- CC(C)CN1CCC(=O)N(CCC#N)CC1
    8%	6%	x	10%	x	-2%	x	x
- Cc1cc(C(=O)N/N=C/C(Cl)=C/c2ccccc2)c(C)o1
    1%	-3%	x	-29%	x	-4%	-29%[46.1 µM]	13%[46.1 µM]
- N#Cc1ccc(-c2nc3ccc(Br)cc3c(=O)n2O)cc1
    1%	-11%	x	-16%	x	-88%	x	x
- O=C(Nc1ccccc1F)C1CCN(S(=O)(=O)c2ccc3c(c2)CCCN3C(=O)C2CCC2)CC1
    x	u	8%	x	-0.7%	x	x	u
- CC(=O)c1ccc(NC(=S)NC(=O)/C=C/c2ccc(F)cc2)cc1
    1%	5%	x	3%	x	7%	-2%[46.1 µM]	-7%

5 entries from above, with tabs.
SMILES	SARS PLP yeast	2A StopGo	Cruzain noTriton	RE007 growth inh	Cruzain inh Det	NS1 inh	MARV entry inh	Lassa entry inh
CCCSc1cc(=O)n(-c2ccccc2)nc1C(=O)O	-1%	-5%	x	16%	x	x	4%[46.1 µM]	15%[46.1 µM]
C=CCCC(=O)Nc1nc(C)c(-c2csc(Nc3ccc(Cl)cc3)n2)s1	-8%	-18%	13µM*	2%	-2.4%	-6%	x	x
Cn1c(=O)c2ncn(CC(=O)Nc3cccc(-c4nc5ccccc5s4)c3)c2n(C)c1=O	2%	15%	u	1%	-11%	-59%	u	u
CCCCN(CC)CCCNC(=O)CS(=O)(=O)Cc1nc(-c2ccc(C)cc2)oc1C	x	-24%	3%	x	0.2%	x	-1%[46.1 µM]	u
Cc1ccc(Nc2c(-c3ccc(N4CCOCC4)cc3)nc3ncccn23)cc1	-12%	-8%&8%	-10%&8%	-7%	-2.4%&-5.7%	30%	-16%[46.1 µM]	4%[46.1 µM]

(list continues)
Each structure is followed by: SARS PLP yeast	2A StopGo	Cruzain noTriton	RE007 growth inh	Cruzain inh Det	NS1 inh	MARV entry inh	Lassa entry inh
- CCn1c(SCC(=O)c2ccc(Br)cc2)nnc1C(C)NC(=O)Cc1ccc(OC)cc1 (configuration not stated)
    0%	11%	1%	2%	7.4%	8%	-7%	-23%
- COc1cnc(-c2ccccn2)nc1Sc1ccc(C)cc1
    u	-3%	x	u	x	x	6.3µM*	u
- O=C1C(Cl)=C(N2CCOCC2)C(=O)N1c1ccccc1F
    5%	-6%	x	-1%	x	4%	u	-11%[46.1 µM]
- Cc1ccc(C2=NS(=O)(=O)N(C)C(C(=O)N3CCOCC3)=C2)cc1
    -4%	-5%	x	-5%	x	7%	x	x
- COC(=O)c1ccccc1C(=O)N(Cc1cccnc1)CC1CCCN(C2CCCCC2)C1 (configuration not stated)
    19%	2%	x	0%	x	-4%	x	x
- O=C(NCc1ccccc1Cl)C1CCCN1S(=O)(=O)c1ccccc1F (configuration not stated)
    -3%	-24%	x	25%	x	1%	u	-2%
- COc1ccc(OC)c(C2c3c(oc4ccccc4c3=O)C(=O)N2CCCN(C)C)c1 (configuration not stated)
    -8%	6%	2%	2%	-2.6%	-5%	1%	16%
- COc1ccc(OC)c(NS(=O)(=O)c2ccc3c(c2)C(C)(C)C(=O)N3C)c1
    u	15%&59%	8%	-7%	-1.1%	17%	x	-1%[46.1 µM]
- Cc1ccc(-c2nc(CS(=O)(=O)CC(=O)N3CCc4ccccc4C3)c(C)o2)cc1
    -9%	u	13%	9%	-4.1%	-82%	-3%	x
- CSCCC(NS(=O)(=O)c1ccc(Cl)cc1)C(=O)OCC(=O)c1ccc(F)cc1 (configuration not stated)
    -22%	-12%	2%	11%	-7.6%	-87%	u	-15%
